# Source: PubChem BioAssay (several laboratories)
# LANA-H2B inh: blocks KSHV LANA binding to histone H2A/H2B; Q9QR71; cell-free LANA-H2A/H2B peptide, fluorescence polarization; inhibition, % (concentration not given with the values); 320,000 compounds, 0.6% hits; AID 2629; in the data active means inhibition mostly above about 10%, no sharp cut-off; inactive means mostly below about 6.7%;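 further: stock transfer was 7.5 nL into about 10 µL; 0% = median of vehicle wells and 100% = median of positive control wells; one replicate is shown; the record names a cut of 25% in any replicate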
# Target sequence (Q9QR71 whole entry, looked up): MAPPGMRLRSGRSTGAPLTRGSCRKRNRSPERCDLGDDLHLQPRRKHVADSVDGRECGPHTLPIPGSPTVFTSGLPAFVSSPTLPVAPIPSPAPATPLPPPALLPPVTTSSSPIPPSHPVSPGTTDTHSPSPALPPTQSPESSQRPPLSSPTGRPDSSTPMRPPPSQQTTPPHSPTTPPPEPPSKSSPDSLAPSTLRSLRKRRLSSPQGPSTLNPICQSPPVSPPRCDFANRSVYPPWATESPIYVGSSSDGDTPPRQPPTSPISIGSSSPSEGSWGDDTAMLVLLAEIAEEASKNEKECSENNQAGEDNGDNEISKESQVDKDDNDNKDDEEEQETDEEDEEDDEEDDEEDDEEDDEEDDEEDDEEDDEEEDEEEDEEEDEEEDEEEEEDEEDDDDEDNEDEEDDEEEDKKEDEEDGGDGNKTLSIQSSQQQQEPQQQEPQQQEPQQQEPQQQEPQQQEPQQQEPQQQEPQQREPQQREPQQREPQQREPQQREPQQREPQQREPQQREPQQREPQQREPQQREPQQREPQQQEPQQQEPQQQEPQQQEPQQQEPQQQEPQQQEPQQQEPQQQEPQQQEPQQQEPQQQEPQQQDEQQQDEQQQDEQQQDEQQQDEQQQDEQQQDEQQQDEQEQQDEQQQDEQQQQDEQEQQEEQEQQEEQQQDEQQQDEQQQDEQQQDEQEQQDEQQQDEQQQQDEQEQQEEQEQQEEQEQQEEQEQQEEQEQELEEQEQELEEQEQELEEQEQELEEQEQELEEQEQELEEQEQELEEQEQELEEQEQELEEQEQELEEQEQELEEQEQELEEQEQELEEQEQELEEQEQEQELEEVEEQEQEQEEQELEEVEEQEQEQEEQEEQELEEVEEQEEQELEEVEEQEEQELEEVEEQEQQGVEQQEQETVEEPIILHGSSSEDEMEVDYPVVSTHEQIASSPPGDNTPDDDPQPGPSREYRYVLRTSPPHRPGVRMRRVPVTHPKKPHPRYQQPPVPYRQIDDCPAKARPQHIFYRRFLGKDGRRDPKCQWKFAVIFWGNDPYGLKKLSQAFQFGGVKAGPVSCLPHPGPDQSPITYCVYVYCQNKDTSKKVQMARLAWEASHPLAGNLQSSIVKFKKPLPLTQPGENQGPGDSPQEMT
# HNF4A DNA FP: change in binding of human HNF4 alpha to DNA; P41235; HNF4a-FITC DNA binding, fluorescence polarization, 1 h; activity change, % at 10 µM; 360,000 compounds, 0.3% hits; AID 1224865; in the data active means activity change above about 30%, passing the limit was not always enough;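 further: controls were the assay level and a saturating level of protein; the project sought stronger binding though the title names inhibitors; some compounds called inactive have numbers as strong as hits; positive values seem to mean higher polarization but the record does not say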
# RanGTP-Imp inh: inhibitors of RanGTP-importin-beta interaction, primary screen, biochemical, FRET, CFP-Ran, YFP-importin-beta, homogeneous; inhibition, % (no concentration beside the values); 300,000 compounds, 1.1% hits; cell-free CFP-Ran/YFP-importin-beta FRET ratio; AID 2216;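 active means most replicates above 15%; inconclusive means exactly half above 15%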;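 further: 0% = DMSO wells and 100% = Ran loaded with GDP instead of GTP; wells of about 40 µL received 100 nL stock; the first replicate is given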
# ALR H2O2 inh: blocks human ALR sulfhydryl oxidase activity | purified ALR, DTT oxidation, H2O2 HRP-luminol luminescence | AID 485317 | 290,000 compounds, 3.8% hits | inhibition, % (test concentration not listed) | P55789;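 active means mean and each replicate at 75% or more; inconclusive means only one of the two met; inactive means neither met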;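 further: stock transfer was 7.5 nL into about 7.5 µL; 0% = neutral wells and 100% = wells with inactivated enzyme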
# Calb FLC: affects C. albicans growth with fluconazole | C. albicans CaCi-2 (fluconazole-resistant clinical isolate) + fluconazole, Alamar Blue growth, 48 h | growth inhibition, % (concentration not given with the values) | 300,000 compounds, 0.57% hits | AID 1979;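 active means most replicates above 75%; inconclusive means exactly half above 75%; inactive means most below 75%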;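 further: all wells also contain fluconazole at 8 µg/ml as a sub-toxic cotreatment; 0% = median of DMSO wells and 100% = median of geldanamycin control wells; wells of about 8 µL received 7.5 nL stock; the first replicate is given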
# Vif TR-FRET: inhibitors of Vif binding to APOBEC3G peptide, primary screen, biochemical, TR-FRET, GST-Vif 1-94, biotin-A3G peptide, dose response retest (AID 1117319); 260,000 compounds, 0.57% hits; TR-FRET GST-Vif / biotin-A3G peptide binding; higher % means a stronger effect; test concentration not given here; strong numbers were not always called active; inhibition, %, or IC50 in µM where a hit was titrated;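 active means above the screen mean plus three standard deviations and confirmed in dose response; inconclusive means results disagree or hit not tested in dose response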;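 further: Vif residues 1-94 fused to GST binding biotinylated APOBEC3G peptide 110-148; 0% = full assay without inhibitor and 100% = GST in place of GST-Vif; retest series ran down from 100 µM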
# B2AR ag: activates human beta-2 adrenergic receptor causing internalization. P07550. Am2.2-beta2AR cells, FAP receptor internalization, flow cytometry; reference of the scale not given here. response, % (concentration not given with the values). 340,000 compounds, 0.43% hits;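 active means response above a set limit, near 3 SD of response in nonfluorescent compounds, cut at about 42% in these data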;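 further: stock transfer was 100 nL into about 11 µL; a reference agonist was the positive control; negative values mostly stem from fluorescent compounds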
# Active calls of the source: *; i = inactive; ? = inconclusive; nt = not tested or not shown. Rows were taken by chance. About 6.3% of those tested had a hit in this group.
Compound,LANA-H2B inh,HNF4A DNA FP,RanGTP-Imp inh,ALR H2O2 inh,Calb FLC,Vif TR-FRET,B2AR ag
Cc1cc(NS(=O)(=O)c2ccc(NC(=S)Nc3ccc(Cl)cc3C)cc2)no1,1.1,3.0,-1.2,-0.2,-8.8,-10.3%,2.7
CCOc1ccccc1N(CC(=O)N1CCCCCC1)S(C)(=O)=O,0.8,2.9,-1.2,-5.1,-5.5,-1.1%,2.5
O=C(NCc1ccc2c(c1)OCO2)c1ccc(Cl)c(S(=O)(=O)N2CCOCC2)c1,-2.4,0.3,3.5,-5.1,-12.9,-4.3%,3.5
Cc1ccc(-c2noc(CCCC(=O)NCC3CCCO3)n2)cc1 (stereo not given),-4.6,4.2,2.9,-3.8,-16.5,nt,-5.1
CC(CCc1ccccc1)NC(=O)c1cccc([N+](=O)[O-])c1 (stereo not given),-0.9,-1.4,-1.2,0.5,13.5,-7.0%,-6.4
CCOc1cc(/C=N/Nc2ncnc(Cl)c2N)ccc1O,-7.4,3.6,1.2,98.8*,-2.6,24.2%,-4.9
COc1cc(OC)c(N2CC(C(=O)Nc3cccc(C(=O)NC4CC4)c3)CC2=O)cc1Cl (stereo not given),nt,4.0,nt,nt,nt,-3.1%,1.7
CCOC(=O)c1c(N2CCCCC2)c2ccccc2[nH]c1=O,-1.4,2.2,-0.1,-0.8,-19.0,-0.5%,-4.1
CCOC(=O)Cn1c(=O)oc2cc(S(=O)(=O)N3CCn4c3nc3ccccc34)ccc21,4.7,0.6,-1.4,1.9,5.1,4.5%,-0.9
CCC(C)(C)NC(=O)C(c1cccc(OC)c1OC)N(Cc1ccccc1)C(=O)CCC(=O)Nc1cc(C)on1 (stereo not given),-14.5,-0.6,-1.2,nt,14.2,4.1%,-5.5
Cc1cc2nc(C)c3c(n2n1)CCC3,i,0.8,2.9,-0.6,12.9,-6.9%,-2.6
Cc1cc(=O)cc(C)n1-c1ccc(Br)cc1,0.6,1.3,-1.6,0.3,-7.6,1.3%,-12.0
Cc1cccc(C(C)C)c1NC(=O)C(C)OC(=O)Cn1cnc2c1c(=O)n(C)c(=O)n2C (stereo not given),4.7,2.4,-3.3,-4.0,-6.7,-3.6%,-0.1
Cc1csc(NC(=O)c2cc3c(s2)-c2ccccc2OC3)n1,-0.3,-0.6,49.4*,4.2,7.3,-1.2%,2.8
O=C(NCCO)C(=O)Nc1cc2c3c(c1)CC(=O)N3CCC2,-3.0,-4.3,5.9,nt,-14.8,nt,1.2
COc1ccc(N2C(=O)C3CCCN3C2c2cccc(Br)c2)cc1 (stereo not given),1.1,4.9,-1.7,nt,2.9,4.9%,-5.5
COC(=O)CNC(=O)c1nn(-c2cccc(OC)c2)c(=O)c2ccccc12,-2.6,1.8,nt,-4.2,nt,?,2.8
c1ccc(C[C@H]2CN=C(Nc3ccccc3)N2CCC2CCCC2)cc1,-6.4,1.5,nt,nt,nt,nt,1.7
COCCN1CC(=O)N(c2cccc(C)c2C)C(c2ccc(Cl)cc2)C1=O (stereo not given),-3.2,1.4,4.4,-9.3,4.4,?,0.7
O=C(CNC(=O)c1ccc(=O)[nH]c1)Nc1ccc(F)c(F)c1,1.7,0.4,2.2,-5.7,1.0,8.9%,-2.0
CCCNC(=O)CN1C(=O)NC(c2ccccc2)(c2ccccc2)C1=O,1.7,-2.3,2.1,nt,2.3,nt,6.3
CCCCN(C)CCNC(=O)c1c[nH]c2ccc(S(=O)(=O)N(CC)CC)cc2c1=O,-6.6,-1.6,-3.2,-6.1,-2.1,16.6%,5.7
CC1(C)CC(NC(=O)c2ccc(Cl)c(S(=O)(=O)N(Cc3ccccc3)c3ccccc3)c2)CC(C)(C)N1,-1.0,2.2,-3.6,-16.8,47.7,-9.2%,26.8
O=C(NCc1ccco1)c1nc(-c2ccc(F)cc2)no1,3.8,-0.9,0.5,3.9,-8.5,10.8%,-3.1
COc1cc(C(=O)Nc2ccc(C)c(S(=O)(=O)N(C)C)c2)ccc1OCC(=O)N1CCOCC1,5.9,-0.6,-2.5,-19.6,nt,2.8%,-2.4
CCOc1ccccc1CN1CCNC(=O)C1CC(=O)N(C)Cc1nonc1C (stereo not given),2.0,-2.3,3.8,-13.5,1.4,nt,-2.8
c1ccc2c(c1)nnn2-c1ncnc2sc3c(c12)CCCC3,-1.0,1.6,?,8.5,-3.4,3.2%,-16.1
CCC1(C)NC(=O)N(CC(=O)NCC(=O)Nc2c(C)cc(C)cc2C)C1=O (stereo not given),-3.6,1.4,nt,nt,nt,-2.1%,0.5
Cc1cccc(NS(=O)(=O)c2ccccc2)n1,1.7,2.2,-1.3,5.0,-11.7,3.8%,0.5
CSc1nncn1/N=C/c1ccc2c(c1)OCO2,-2.8,-0.8,-1.4,1.5,?,-2.1%,-7.6
CCOC(=O)c1cc(C#N)c(N2CCN(c3ccc(OC)cc3)CC2)[nH]c1=O,-2.8,2.3,3.4,92.7*,92.5*,-9.8%,2.5
O=C(Nc1ccc(Cl)cc1C(=O)NCCN1CCOCC1)c1ccco1,-3.2,-1.5,4.7,-3.8,-11.3,0.2%,-6.6

# Two entries drawn at random from the list so far, as already listed:
Compound,LANA-H2B inh,HNF4A DNA FP,RanGTP-Imp inh,ALR H2O2 inh,Calb FLC,Vif TR-FRET,B2AR ag
O=C(Nc1ccc(Cl)cc1C(=O)NCCN1CCOCC1)c1ccco1,-3.2,-1.5,4.7,-3.8,-11.3,0.2%,-6.6
COc1cc(C(=O)Nc2ccc(C)c(S(=O)(=O)N(C)C)c2)ccc1OCC(=O)N1CCOCC1,5.9,-0.6,-2.5,-19.6,nt,2.8%,-2.4

# Continued:
Compound,LANA-H2B inh,HNF4A DNA FP,RanGTP-Imp inh,ALR H2O2 inh,Calb FLC,Vif TR-FRET,B2AR ag
CCCn1c(C)cc(/C=C(\C#N)C(=O)OCC(=O)Nc2cc(OC)c(OC)c(OC)c2)c1C,-0.9,0.8,?,-3.3,4.6,nt,-0.2
Cc1ccc(-n2c(C)cc3c2CCCC3=O)cc1,-3.5,-7.9,-0.9,-7.1,-11.5,19.4%,-5.4
O=C(O)CNC(=O)/C=C/c1ccc(Cl)cc1Cl,-0.4,-0.3,1.1,-7.4,-6.3,nt,-0.3
CCN(CC)CCCN1C=C2C(=O)C(C)(OC(=O)C3CCCC3)C(=O)C=C2C=C1c1ccsc1 (stereo not given),2.9,0.4,-5.4,-33.8,-2.6,?,2.9
COc1ccc(NC(=O)N2CCN(S(C)(=O)=O)CC2)cc1,-8.9,1.0,-1.1,-7.9,-17.6,nt,-8.9
CS(=O)(=O)c1ccc(S(=O)CC(=O)OCc2ccccc2)c([N+](=O)[O-])c1 (stereo not given),nt,-1.2,-2.5,nt,63.8,-1.0%,43.7*
Cc1cc(C)c(NC(=O)C2=COCCO2)c(C)c1,6.7,-2.3,-3.4,-4.5,nt,1.1%,-2.9
NS(=O)(=O)c1ccc(CCNC(=O)c2ccncc2)cc1,-1.6,3.6,7.5,2.8,16.7,nt,2.8
O=C(CSc1nnc(NC(=O)c2c(F)cccc2F)s1)Nc1ccccc1F,-1.6,4.3,-1.2,1.2,1.6,nt,3.0
Cc1cccc(Nc2nnc(SCC(=O)NCC3CCCO3)s2)c1 (stereo not given),2.3,3.9,nt,-5.0,nt,-10.2%,2.0
COC(=O)c1ccc(Sc2ccccn2)c([N+](=O)[O-])c1,-1.0,-0.1,?,-3.1,-3.7,nt,5.4
Fc1ccc(-n2nnnc2-c2cnc(-c3cccs3)nc2C(F)(F)F)cc1,1.3,2.9,-3.5,-8.3,-7.6,14.9%,23.4
CCN(CC)CCN(Cc1cc2cc(C)ccc2[nH]c1=O)C(=S)NCc1ccco1,3.2,-0.8,7.7,-45.5,2.6,-8.6%,9.0
COc1ccccc1NC1C=CS(=O)(=O)C1 (stereo not given),-0.8,0.5,-2.1,76.3*,-4.5,3.5%,1.1
COc1cc(-c2nc3n(n2)C(c2ccncc2)C(C(N)=O)=C(C)N3)cc(OC)c1OC (stereo not given),1.7,-3.1,-1.5,16.4,-8.9,-4.7%,3.9
N#Cc1ccc(NC(=O)COC(=O)CSc2nnc(-c3ccc(Cl)cc3)o2)cc1,0.6,2.4,1.1,-5.2,0.4,nt,11.0

# Some of the entries above, set out differently:
# Values run as follows: LANA-H2B inh | HNF4A DNA FP | RanGTP-Imp inh | ALR H2O2 inh | Calb FLC | Vif TR-FRET | B2AR ag
Fc1ccc(-n2nnnc2-c2cnc(-c3cccs3)nc2C(F)(F)F)cc1
    1.3 | 2.9 | -3.5 | -8.3 | -7.6 | 14.9% | 23.4
CCN(CC)CCN(Cc1cc2cc(C)ccc2[nH]c1=O)C(=S)NCc1ccco1
    3.2 | -0.8 | 7.7 | -45.5 | 2.6 | -8.6% | 9.0
COc1ccccc1NC1C=CS(=O)(=O)C1 (stereo not given)
    -0.8 | 0.5 | -2.1 | 76.3* | -4.5 | 3.5% | 1.1
COc1cc(-c2nc3n(n2)C(c2ccncc2)C(C(N)=O)=C(C)N3)cc(OC)c1OC (stereo not given)
    1.7 | -3.1 | -1.5 | 16.4 | -8.9 | -4.7% | 3.9

# Additional entries
Compound,LANA-H2B inh,HNF4A DNA FP,RanGTP-Imp inh,ALR H2O2 inh,Calb FLC,Vif TR-FRET,B2AR ag
Cc1nc2cc(NC(=O)C3COc4ccccc4O3)ccc2s1 (stereo not given),8.2,4.9,-1.6,nt,33.0,nt,-3.2
O=C(CN(Cc1ccccc1)S(=O)(=O)c1ccccc1)N/N=C/c1ccccc1[N+](=O)[O-],1.9,-7.0,-2.0,-1.9,-2.7,-1.1%,2.7
CCCn1c(=O)[nH]c(=O)c2c1nc(-c1ccc(OC(F)F)cc1)n2CCN1CCOCC1,-4.3,1.8,-0.5,-9.2,-12.0,-1.1%,4.5
CCCOc1cccc(-c2nnc(NC(=O)c3ccco3)s2)c1,1.3,3.5,-0.9,-0.4,88.3*,3.2%,-15.2
CCOC(=O)Cn1c(C(F)(F)F)nc2nc(Cl)c(Cl)nc21,nt,1.5,nt,nt,nt,1.6%,6.3
CC1(C)CC(=O)C(C=NCCN2CCN(CC(=O)Nc3ccccc3)CC2)=C(O)C1,2.3,-3.1,3.4,nt,0.5,7.9%,2.8
Cc1ccccc1CC(=O)Nc1ccc(S(=O)(=O)N2CCN(C)CC2)cc1,4.0,3.2,1.3,-5.0,1.7,-1.1%,-2.7
CCOc1ccc(NS(=O)(=O)c2cc3c4c(c2)C(C)C(=O)N4CCC3)cc1 (stereo not given),-1.4,-1.2,5.1,-1.5,2.8,-0.7%,-2.1
COc1ccc(OC)c(-n2nnnc2SCC(=O)Nc2cc(C)ccc2OC)c1,-0.4,-3.9,-2.3,1.6,8.1,nt,-4.4
O=C(NNC(=O)C1C2C=CC(C2)C1C(=O)O)c1cc(Cl)ccc1O (stereo not given),-3.2,0.8,nt,15.5,-3.5,nt,-2.5
COc1ccc(C(=O)Nc2ccc3c4c(cccc24)CC3)cc1,-4.2,2.0,-4.6,-3.7,13.7,22.1%,-2.5
CCc1cccc(CC)c1N1C(=O)c2cc(N3CCOCC3)c([N+](=O)[O-])cc2C1=O,5.8,7.1,1.1,-1.4,8.1,5.1%,2.1
CC(C)(C)c1cccc(/C=N/O)c1O,-0.7,-1.1,2.8,nt,9.7,-1.7%,0.4
O=C(NCCCn1ccnc1)c1ccc(Br)c(S(=O)(=O)N2CCOCC2)c1,7.4,0.4,-0.8,-28.5,1.9,-1.6%,-3.6
CCOc1ccc(Oc2ccc(-c3nnc(-c4ccccc4)o3)cc2[N+](=O)[O-])cc1,-1.5,-3.8,?,-0.6,9.0,-0.2%,8.8
